YopH PTP inh: blocks Yersinia enterocolitica YopH tyrosine phosphatase; fluorescence Ex485/Em525; AID 898; 140,000 tested, 0.16% active; inhibition, %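 (about 10 µM by stock and volumes)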;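 active = inhibition of 50% or more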;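 note: controls were vehicle for no effect and minimum signal wells for full effect; inactives centre near -20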
Arbovirus inh: arbovirus infection inhibition; arbovirus infection cell-based antiviral screen; inhibition, % at 10 µM; 200,000 tested, 0.37% active;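 active = inhibition from about 30%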;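 note: bluetongue infection of BSR cells; cell survival read as ATP light after 72 h; 0% = infected wells without compound and 100% = uninfected wells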
Mtb bLac sens: beta-lactam sensitization of Mtb H37Rv | M. tuberculosis H37Rv growth with meropenem, percent inhibition; hits of this screen are not shown here | inhibition, % at 25 µM | 330,000 tested, 0.27% active;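 active = about 74% or more and at least 40 points above the plate without the antibiotic, then above 30% in a dose series; inconclusive = first-round hits that could not be retested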;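 note: growth measured after seven days incubation then overnight dye step; 0% = bacteria only wells and 100% = bacteria with antibiotic; twin plates without the antibiotic show which effects depend on it; some results filed as inactive read as strong as hits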
RecA intein inh: Mtb RecA intein splicing inhibition; cell-free RecA intein splicing, fluorescence; P9WHJ3; inhibition, %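 (about 9 µM by stock and volumes)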; 290,000 tested, 0.75% active; in the data active = inhibition above about 30%; inconclusive = no clear call, values can overlap the other calls;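 note: 0% = vehicle wells and 100% = reference inhibitor control wells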
Target sequence (P9WHJ3 whole entry, looked up): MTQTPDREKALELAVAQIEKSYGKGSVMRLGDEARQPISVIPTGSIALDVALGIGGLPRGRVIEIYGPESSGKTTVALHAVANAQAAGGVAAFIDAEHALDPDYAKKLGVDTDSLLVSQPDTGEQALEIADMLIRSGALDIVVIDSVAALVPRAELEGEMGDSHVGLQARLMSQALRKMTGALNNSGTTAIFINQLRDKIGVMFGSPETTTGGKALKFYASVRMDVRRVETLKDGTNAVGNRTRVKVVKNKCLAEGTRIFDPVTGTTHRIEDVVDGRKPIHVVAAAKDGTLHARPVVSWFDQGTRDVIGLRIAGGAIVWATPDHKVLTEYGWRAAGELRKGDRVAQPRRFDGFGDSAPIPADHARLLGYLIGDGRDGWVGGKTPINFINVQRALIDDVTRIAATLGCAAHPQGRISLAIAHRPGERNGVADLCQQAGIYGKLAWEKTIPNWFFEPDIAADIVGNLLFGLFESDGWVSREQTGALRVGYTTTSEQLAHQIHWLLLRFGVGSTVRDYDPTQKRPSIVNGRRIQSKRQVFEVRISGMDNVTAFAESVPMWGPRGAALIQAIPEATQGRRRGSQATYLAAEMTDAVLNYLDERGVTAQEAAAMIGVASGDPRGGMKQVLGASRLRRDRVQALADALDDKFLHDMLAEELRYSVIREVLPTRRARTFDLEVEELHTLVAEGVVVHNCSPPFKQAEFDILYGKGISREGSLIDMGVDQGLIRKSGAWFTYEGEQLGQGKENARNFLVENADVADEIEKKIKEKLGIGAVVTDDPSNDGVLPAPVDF
Mtb growth: M. tuberculosis H37Rv growth inhibitors, H37Rv strain (AID 1626); M. tuberculosis H37Rv growth inhibition; higher % means a stronger effect; inhibition, % at 10 µM; hits with a dose series show IC50 in µM; 220,000 tested, 0.95% active;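 active = confirmed in a dose series; inconclusive = inhibition above 80% but not taken into the dose series; inactive = below 80% or under 30% at every dose of the series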;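 note: bacteria incubated seven days before Alamar blue readout; 0% = bacteria only wells and 100% = bacteria with antibiotic wells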
Arbovirus inh repeat: second read-out of Arbovirus inh, no call of its own (marks repeat the call); inhibition, %; measured here: 10K subset replicate screen; many hits read low in the repeat;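 first of two repeat runs on a subset; 0% = infected and 100% = uninfected wells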
An asterisk follows results filed as active; u = inconclusive; x = not tested or not shown.

SMILES	YopH PTP inh	Arbovirus inh	Mtb bLac sens	RecA intein inh	Mtb growth	others
O=c1c2oc3ccccc3c2ncn1Cc1ccc(Cl)cc1	x	-11	-2	-0.9	-10%
CCOC(=O)N(CC)OC(=O)Nc1ccc(Cl)cc1	-19	6	-1	3.2	-1%
C[C@]12CCC(=O)C=C1CC[C@@H]1[C@@H]2C(=O)C[C@@]2(C)[C@H]1CC[C@]2(O)C(=O)CO	-48	7	4	-0.2	7%
COc1ccc(NC(=O)c2cnc(SC)n2-c2ccc(F)cc2)c(OC)c1	x	x	-1	2.6	x
O=C(Cc1ccc(Cl)cc1)NNS(=O)(=O)c1ccc([N+](=O)[O-])cc1	-15	13	-2	-0.2	12%
Cc1cc(C)cc(N(C(=O)CNC(=O)c2cccs2)C(C(=O)NC2CCCC2)c2cccnc2)c1 (centres undefined)	-27	0	-8	1.0	-4%
CCN(CC)c1ccc(NC(=O)c2cccnc2)cc1	-11	-11	-1	-4.7	-1%
O=C(Cn1nc(C(F)F)cc1C(F)F)N/N=C/c1ccc2c(c1)OCO2	-14	2	-7	2.1	-10%
Cc1cc(F)ccc1S(=O)(=O)Nc1ccccc1C(=O)NCc1cccnc1	x	17	-1	0.8	-1%
Cc1ccc(S(=O)(=O)C2(C(=O)N3CCCCC3C)CC2)cc1 (centres undefined)	-32	0	-2	x	-2%
CCOc1ccc(NC(=O)CC(c2ccccc2)c2ccc(F)cc2)cc1 (centres undefined)	-26	0	0	-0.7	-3%
N#Cc1c(Nc2ccccc2)c(/C=N/NCCO)c[nH]c1=O	x	7	7	-8.8	-1%
O=C(Nc1nc2ccccc2s1)c1cccc(S(=O)(=O)N2CCc3ccccc32)c1	x	x	19	-14	66%
Cc1ccc(OCC(O)CNC2CCCC2)c(C)c1 (centres undefined)	x	x	-13	0.9	x
COc1cc(CN2CCC(C)CC2)ccc1OCc1ccccc1	x	x	-3	1.9	x
O=C(O)CC1S/C(=N/N=C/C=C/c2ccccc2[N+](=O)[O-])NC1=O (centres undefined)	-25	4	3	-2.2	5%
CCC1(C)N=c2c(c(=O)n(C)c(=O)n2C)=NO1 (centres undefined)	-11	6	13	-2.1	-2%
CCc1ccc(N2CC(C)Cn3c2nc2c3c(=O)n(CCN3CCOCC3)c(=O)n2C)cc1 (centres undefined)	-10	1	-2	-0.6	-4%
O=C1OCCN1c1c(-c2ccccc2)c(N2CCOCC2)nc2ccccc12	x	x	-1	-0.7	-16%
COc1ccc(-c2[nH]ncc2CN(C)Cc2cccnc2)c(OC)c1	x	0	-4	0.4	4%
CCN(CC(=O)Nc1c(F)cccc1F)C(=O)c1cc(S(=O)(=O)N(C)C)ccc1N1CCCC1	x	x	-5	-1.8	x
CN(NC(=O)c1ccccc1)c1ncc(C(F)(F)F)cc1Cl	x	x	-15	1.2	0%
CN1C(=O)CN=C(c2ccccc2Cl)c2cc(Br)ccc21	x	x	3	1.9	x
Cc1cc(NC(=O)c2ccc3c(c2)C(=O)N(c2cccc(C)c2C)C3=O)no1	x	x	u	-0.4	x
CC(C)(C)C(=O)Nc1nnc(SCC(=O)Nc2nccs2)s1	x	x	3	-1.7	x

Among those listed so far, five contain a Cl atom.
SMILES	YopH PTP inh	Arbovirus inh	Mtb bLac sens	RecA intein inh	Mtb growth	others
O=c1c2oc3ccccc3c2ncn1Cc1ccc(Cl)cc1	x	-11	-2	-0.9	-10%
CCOC(=O)N(CC)OC(=O)Nc1ccc(Cl)cc1	-19	6	-1	3.2	-1%
O=C(Cc1ccc(Cl)cc1)NNS(=O)(=O)c1ccc([N+](=O)[O-])cc1	-15	13	-2	-0.2	12%
CN(NC(=O)c1ccccc1)c1ncc(C(F)(F)F)cc1Cl	x	x	-15	1.2	0%
CN1C(=O)CN=C(c2ccccc2Cl)c2cc(Br)ccc21	x	x	3	1.9	x

Next part
SMILES	YopH PTP inh	Arbovirus inh	Mtb bLac sens	RecA intein inh	Mtb growth	others
CC1(CCC(=O)N2CCCC(N3CCN(c4ccc(F)cc4)CC3)C2)CC1 (centres undefined)	x	x	11	-1.2	x
COC(=O)c1c(NC(=O)C2CC(C)=C(C)CC2C(=O)O)sc2c1CCCCC2 (centres undefined)	x	x	-6	0.7	x
O=C(Nc1cc(Cl)cc(Cl)c1)C(c1ccccc1)N1CCCCC1 (centres undefined)	-9	16	-1	3.4	17%
CCC(CC)C1C(C#N)=C(N)Oc2n[nH]c(-c3ccccc3)c21 (centres undefined)	-32	-10	0	3.6	-2%
Cc1ccc2c(c1)C(c1ccccc1)C(=O)O2 (centres undefined)	x	x	-3	1.4	-5%
CNC(=O)Nc1ccccc1F	-14	4	-6	-2.5	-7%
Cc1cc(C(F)(F)F)nc(SCC(=O)Nc2nccs2)n1	x	x	-1	-1.1	x
O=C(NCc1cccnc1)c1ccc([N+](=O)[O-])cc1	x	1	5	0.2	3%
CCOc1ccc(-c2nc(-c3ccncc3)no2)cc1OCC	-43	6	91	3.3	13%
CC(O)Cc1cn([C@@H](CCCCN)C(=O)N2CCNCC2)nn1 (some centres undefined)	x	3	-11	-0.3	-8%
O=C(CN1C(=O)COc2ccc(S(=O)(=O)N3CCCC3)cc21)Nc1cccc(F)c1	x	x	3	-0.2	x
COc1ccc(CSCC(=O)N/N=C/c2ccc(OCC(=O)NCc3ccco3)cc2)cc1	-36	3	18	0.7	1%
COc1ccccc1NC(=S)N1CCC(NC(=O)c2ccco2)CC1	x	-1	-4	-0.6	-9%
CC(=O)NC1=NN(C(C)=O)C(C)(c2ccc(C)o2)S1 (centres undefined)	x	4	-8	-1.3	9%
CCC(C)NC(=O)C1CCN(S(=O)(=O)N2CCCC2)CC1 (centres undefined)	-36	11	-3	0.0	-7%
COc1ccc(C(=O)NCC(=O)OCC(=O)c2cc(OC)c(OC)c(OC)c2)cc1OC	-19	-13	4	-0.1	-1%
Cc1ccc(-c2c(C)n([O-])c3c([n+]2=O)CCCCC3)o1	-42	1	-2	-11	-11%
Cc1ccc2sc(N(CCN(C)C)C(=O)c3ccc(S(=O)(=O)N4CC(C)OC(C)C4)cc3)nc2c1C (centres undefined)	x	x	4	0.6	x
CN1CCCC(C(=O)c2ccccc2)C1 (centres undefined)	-22	10	-6	-0.6	-3%
COc1ccccc1/C=C/CN1CCCC(CO)(Cc2cccc(Cl)c2)C1 (centres undefined)	x	-31	28	3.5	11µM*
Cc1ccc(OCC(O)CNC(C)c2ccccc2)cc1C (centres undefined)	x	x	4	-3.1	x
CCN(c1ccccc1)S(=O)(=O)c1ccc(OCc2c(C)noc2C)cc1	-3	0	-8	9.1	-12%
Cc1csc(SC(C)C(=O)NCC(=O)Nc2ccc(F)c(F)c2F)n1 (centres undefined)	x	3	3	0.8	-3%
Cc1cccc(NC(=O)NNC(=O)CCc2ccccc2)c1	x	x	-1	1.8	x
COc1ccc(/C(N)=N/OC(=O)CCC2CCCC2)cc1OC	x	x	0	3.4	x
Continuation:
SMILES	YopH PTP inh	Arbovirus inh	Mtb bLac sens	RecA intein inh	Mtb growth	others
COc1ccc(CSCCN)cc1Cl	30	1	5	-2.8	0%
N#CCSCC(=O)Nc1ccccc1	-21	-4	-1	x	-7%
COc1ccc(N2CCN(Cc3nc4cc(Cl)ccc4c(=O)[nH]3)CC2)cc1	x	2	-5	-1.1	-1%
O=c1[nH]c(=O)n(-c2ccc(F)cc2)c(O)c1C=NCCN1CCCCC1	x	x	-5	4.5	2%
COc1ccc(NC(=O)CN(C)C(=O)/C=C/c2cn(-c3ccccc3)nc2-c2ccc(F)cc2)cc1	x	x	2	3.0	x
O=Cc1ccccc1-n1cncn1	x	-2	-3	-4.9	-3%
CC(=O)NC(=S)Nc1cc(C(=O)O)ccc1Cl	x	1	4	1.4	-11%
Cc1ccc(S(=O)(=O)N2CCOCC2)cc1NC(=O)CN1CCN(c2ccc(O)cc2)CC1	-24	-6	-1	-8.0	-3%
Cc1nnc2ccc(N3CCCCC3)nn12	x	x	-4	0.9	x
CCOC(=O)c1c(CC(C)C)csc1NC=O	-4	-2	67	-0.3	-11%	Arbovirus inh repeat=-4
Cc1cc(C)n(CC(O)COc2ccc(C(C)C)c(C)c2)n1 (centres undefined)	x	x	-10	3.8	x
COc1ccccc1C(C)NCC(=O)Nc1c(F)cccc1F (centres undefined)	x	-2	-5	-2.5	0%
Cn1cnc([N+](=O)[O-])c1Oc1cccc(O)c1	-26	3	3	11	8%
COc1ccccc1OCC(=O)Nc1cccc(N(C)S(C)(=O)=O)c1	-3	7	-5	0.5	4%
Cc1cccc(N(C(=O)c2nsc(Cl)c2Cl)C(C(=O)NC2CCCC2)c2ccc(O)cc2)c1C (centres undefined)	-40	-14	100	11	u
O=C(NC1CCCC1)NS(=O)(=O)c1ccccc1Cl	-24	5	2	-0.1	8%
COc1ccc(-n2nc(C(=O)NCC(=O)N3CC(C)CC(C)C3)c3ccccc3c2=O)cc1 (centres undefined)	x	x	10	1.1	x
COC(=O)c1cn(CCOc2ccc(C)cc2)c2ccccc12	-19	-11	-8	11	-4%
Cc1c(OCc2nn[nH]n2)ccc2c3c(c(=O)oc12)CCC(C)C3 (centres undefined)	-27	9	-12	x	-10%
CCN1CCN(C(=O)C2(NC(=O)Nc3ccccc3Cl)CCCCC2)CC1	-5	6	-8	-0.8	-5%
COc1ccc(CCNC(=O)CCCCCN2C(=O)c3ccccc3C2=O)cc1	-28	2	-10	0.0	-4%
COc1ccc(C(=O)CSC2=C(C#N)C3(CCCCC3)C(C#N)=C(N)N2)cc1	-50	-10	55	4.2	9%
C=CCNc1cc(C(F)(F)F)nc(-c2ccccn2)n1	-38	-3	90	0.0	4.9µM*
O=C(COc1ccc(Br)cc1)NNC(=S)NC(=O)c1ccccc1[N+](=O)[O-]	-25	-6	-1	1.8	0%
CC(=O)N1CCN(S(=O)(=O)c2cccc(C(=O)OCC(=O)NC(=O)c3cccn3C)c2)CC1	0	7	-1	3.8	9%

Compounds from the list above with a COOH group (three):
SMILES	YopH PTP inh	Arbovirus inh	Mtb bLac sens	RecA intein inh	Mtb growth	others
O=C(O)CC1S/C(=N/N=C/C=C/c2ccccc2[N+](=O)[O-])NC1=O (centres undefined)	-25	4	3	-2.2	5%
COC(=O)c1c(NC(=O)C2CC(C)=C(C)CC2C(=O)O)sc2c1CCCCC2 (centres undefined)	x	x	-6	0.7	x
CC(=O)NC(=S)Nc1cc(C(=O)O)ccc1Cl	x	1	4	1.4	-11%

Continued.
SMILES	YopH PTP inh	Arbovirus inh	Mtb bLac sens	RecA intein inh	Mtb growth	others
CCOC(=O)C(C(=O)OCC)N(C#N)c1nc(OC)nc(N(C)C)n1	-7	-4	-1	-7.1	-12%
Fc1cccc(Cc2noc(CN3CCC(c4ccncc4)CC3)n2)c1	x	9	1	-0.9	7%
COc1ccc(OC)c(S(=O)(=O)N(C)CC(=O)N2CCN(c3ccccc3F)CC2)c1	3	1	-10	1.4	7%
CC(=O)N1CCN(C(=O)CSc2cc(C)c(Br)cc2C)CC1	x	x	-9	0.0	x
COc1ccc(N2C(=S)NC3CS(=O)(=O)CC32)cc1 (centres undefined)	x	x	-11	0.4	-7%
COCCn1c(Cc2ccccc2)nnc1SCC(=O)Nc1cc(C)on1	-14	6	-4	-1.3	-1%
COc1cccc(NC(=O)CCNS(=O)(=O)c2cccc3nonc23)c1	x	x	7	-3.3	x
O=C(c1cc2ccccc2cc1O)N1CCCC1	x	x	-5	-10	x
CCCCOC(=O)C1=C(N)OC2=C(C(=O)CCC2)[C@]12C(=O)Nc1ccccc12	-29	5	1	x	-7%
CCOc1cc(/C=C(\C#N)C(=O)Nc2cccc(C(=O)O)c2)cc(Br)c1OC(=O)c1ccc(OC)cc1	x	x	12	38*	x
CCCNC(=O)CN(CCc1ccccc1)S(C)(=O)=O	-19	14	1	0.1	-5%
Cc1ccc(NC(=O)COC(=O)c2ccc(OCc3c(C)noc3C)cc2)cc1S(=O)(=O)N1CCOCC1	-16	-4	-4	4.7	-3%
Cc1ccnc(NC(=O)C2CCN(S(=O)(=O)c3cccc(C(F)(F)F)c3)CC2)c1	x	x	-6	0.2	x
CCOc1ccccc1NC(=O)CN1CCC(C(=O)c2ccc(OC)cc2)CC1	x	x	83	0.3	x
COC(=O)c1cc(-c2cccs2)nc2ccccc12	x	x	1	-26	x
COc1cc(-c2nnc(SCC(=O)N(Cc3ccccc3)C(C)(C)C)o2)cc(OC)c1OC	-22	-15	41	13	10%
Cc1[nH]c2ccccc2c1C(=O)COC(=O)C1CC(=O)N(Cc2ccco2)C1 (centres undefined)	-42	3	1	0.1	-5%
O=C(NCCSc1ccc(Br)cc1)c1ccccc1	x	6	-1	4.1	4%
COc1cc(C(=O)OC(C)CN2CCCCC2)cc(OC)c1OC (centres undefined)	x	x	8	-1.0	x

Screening data: PubChem BioAssay, several laboratories

Not all compounds are listed. The share of hits here may be higher or lower than overall.
